D2 agonist: human D2 receptor agonism in beta-arrestin assay | P14416 | DiscoveRx PathHunter D2 beta-arrestin, luminescence, 90 min; 100% = 57 uM dopamine signal | activation, % (concentration not given with the values) | hit rate 0.084% among 360,000 | AID 624465; in the data active = activation above about 40%; inconclusive = about 15% to 40%; inactive = below about 15%; note: compound concentration not given in the record; the text of the record calls up to 30% inactive
Target sequence (P14416 whole entry, looked up): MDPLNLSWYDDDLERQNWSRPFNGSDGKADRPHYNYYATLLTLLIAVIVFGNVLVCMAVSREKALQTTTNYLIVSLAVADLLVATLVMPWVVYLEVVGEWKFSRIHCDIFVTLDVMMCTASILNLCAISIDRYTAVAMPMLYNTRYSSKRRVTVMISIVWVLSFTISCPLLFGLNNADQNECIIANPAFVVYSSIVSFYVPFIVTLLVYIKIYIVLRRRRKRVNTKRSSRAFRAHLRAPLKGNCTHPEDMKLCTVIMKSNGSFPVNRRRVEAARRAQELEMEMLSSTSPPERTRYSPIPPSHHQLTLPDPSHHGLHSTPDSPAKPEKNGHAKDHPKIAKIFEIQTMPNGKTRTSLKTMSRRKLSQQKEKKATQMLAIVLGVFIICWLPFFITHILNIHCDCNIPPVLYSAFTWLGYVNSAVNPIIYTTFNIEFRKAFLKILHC
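Agonist mode: compounds alone added to overnight-plated D2 PathHunter cells for 90 min at 37 C, with 57 uM final dopamine (EC100) defining full response. Beta-arrestin recruitment detected by chemiluminescent reagent, read after 1 h at ambient temperature.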
TRPML1 agonist: activates the human TRPML1 channel; Q9GZU1; hit rate 0.12% among 410,000; activation, % (test concentration not listed); TRPML1-expressing cells, Ca2+ dye fluorescence, FDSS; host cell line not named in the record; reference of the full effect not given here; in the data active = activation above about 50%; inconclusive = about 30% to 50%; inactive = below about 30%; note: 0% is about no effect; the text of the record puts the active cut at 80%
Target sequence (Q9GZU1 whole entry, looked up): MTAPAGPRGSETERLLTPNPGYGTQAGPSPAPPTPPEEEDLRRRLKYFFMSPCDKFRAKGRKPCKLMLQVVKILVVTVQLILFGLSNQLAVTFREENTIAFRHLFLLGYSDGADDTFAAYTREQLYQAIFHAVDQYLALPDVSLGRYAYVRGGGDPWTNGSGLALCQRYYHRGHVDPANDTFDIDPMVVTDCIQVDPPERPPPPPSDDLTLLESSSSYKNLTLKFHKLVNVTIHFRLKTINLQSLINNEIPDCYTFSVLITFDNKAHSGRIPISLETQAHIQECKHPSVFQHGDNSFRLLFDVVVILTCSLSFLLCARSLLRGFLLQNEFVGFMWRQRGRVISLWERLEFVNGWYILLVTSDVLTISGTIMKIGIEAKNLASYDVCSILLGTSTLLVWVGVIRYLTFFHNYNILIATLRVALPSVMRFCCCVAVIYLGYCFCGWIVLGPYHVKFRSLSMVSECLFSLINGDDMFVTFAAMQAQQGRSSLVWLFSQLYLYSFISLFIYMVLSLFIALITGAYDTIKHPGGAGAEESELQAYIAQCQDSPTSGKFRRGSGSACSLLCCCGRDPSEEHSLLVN
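Calcium fluorescence on an FDSS kinetic reader gave the read-out. Tet-induced TRPML1-DL cells were plated overnight, dye-loaded (Ca8 with quencher, 45-90 min, room temperature, dark), then read 110 s after compound addition, and again 110 s after 4uM final 54-4 (EC80).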
PINK1 expr mod: modulators of PINK1 expression; PINK1 immunofluorescence, high-content cytometry, 24 h; Potency, µM (doses to about 76.6 µM), without a hit: at the highest dose activation (PINK1 increase), actives largely listed as activators; hit rate 0.2% among 410,000; active = well fitted activation curve with a large enough effect; inconclusive = small, poorly fitted or top-dose-only effect; inactive = flat fitted curve, though single readings scatter; cell line not stated here;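 note: potency is the fitted concentration of half-maximal effect; % of control where 0% means no effect; nearly all actives have a fitted effect of over 65% in size; a mitochondrial uncoupler was the plate control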
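Measures PINK1 amount and localization on or inside mitochondria by immunofluorescence. Stable cells get compounds at 5 concentrations for 24 hours before fixation and staining; CCCP controls included.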
D2 potentiator: positive allosteric modulators of human D2 dopamine receptor; P14416; DiscoveRx D2 beta-arrestin cells, luminescence, 90 min; 100% = 57 uM dopamine signal; potentiation, % (test concentration not listed); hit rate 0.23% among 360,000; active = potentiation of 50% or more; inconclusive = 30% to 50%; inactive = 30% or less;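 note: compound concentration not given in the record; tested on top of an EC20 dose of dopamine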
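PathHunter D2 cells, attached overnight at 37 deg C, received compound in DMSO plus dopamine at EC20 (50 nM final) for 90 min at 37 deg C. Beta-arrestin recruitment was read as luminescence after 1 h with detection reagent at ambient temperature.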
TRPML1 inh: blocks the human TRPML1 channel. Q9GZU1. TRPML1-inducible cells, Ca2+ dye fluorescence, FDSS; stronger effect = lower value; inhibition of EC80 agonist-evoked calcium signal. activity change, negative = inhibition, % (concentration not given with the values). hit rate 0.02% among 390,000; in the data active means activity change below about -50%; inconclusive means about -30% to -50%; inactive means above about -30%;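 note: stimulus is agonist 54-4 at its EC80 concentration; % is set by controls: 0 for no effect and ±100 for the full control effect; compound concentration not given in the record; the text of the record puts the active cut at -80%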
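Calcium fluorescence in TRPML1-DL cells induced overnight with Tet: a 110 s read after compound pin addition, then a 110 s antagonist read after challenge with 54-4 at 4 uM final (EC80).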
Six1-Eya2 inh: Six1/Eya2 interaction inhibition; Q15475+O00167; AlphaScreen GST-Six1/His-Eya2 binding, biochemical; stronger effect = lower value; control for the full effect not named in the record; activity change, % (no concentration beside the values); hit rate 0.56% among 360,000; in the data active = activity change below about -65%; inconclusive = about -30% to -65%; inactive = above about -30%; note: % is set by controls: 0 for no effect and ±100 for the full control effect; compound concentration not given in the record
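AlphaScreen with GST-Six1 and His-Eya2 (5X mix: 250 nM and 500 nM), glutathione donor and nickel acceptor beads; buffer 50 mM Tris pH 8.0, 300 mM NaCl, 1 mM TCEP; 1 h at 37 C in the dark.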
* hit, by the source's call; [ ] = remark or other dose.

Sample of the layout (two entries):
Screening COc1ccc(C(O)c2ncc(-c3ccccc3OC)[nH]2)cc1F (stereo unspecified) returned D2 agonist -6.5, TRPML1 agonist 0.0, PINK1 expr mod -0.4%, D2 potentiator -24, TRPML1 inh 38 and Six1-Eya2 inh -2.
CCN(CC)C(=O)C1CCN(S(=O)(=O)c2ccc(C3CNC(=O)C3)cc2)CC1 (stereo unspecified) was read as D2 agonist 6.7, TRPML1 agonist -0.3, PINK1 expr mod 1.7%, D2 potentiator 1, TRPML1 inh -3 and Six1-Eya2 inh 0.

The whole of this part, from the first entry:
Screening COc1ccc(C(O)c2ncc(-c3ccccc3OC)[nH]2)cc1F (stereo unspecified) returned D2 agonist -6.5, TRPML1 agonist 0.0, PINK1 expr mod -0.4%, D2 potentiator -24, TRPML1 inh 38 and Six1-Eya2 inh -2.
CCN(CC)C(=O)C1CCN(S(=O)(=O)c2ccc(C3CNC(=O)C3)cc2)CC1 (stereo unspecified) was read as D2 agonist 6.7, TRPML1 agonist -0.3, PINK1 expr mod 1.7%, D2 potentiator 1, TRPML1 inh -3 and Six1-Eya2 inh 0.
O=C(C=Cc1cccs1)c1ccc(Cl)s1 was read as D2 agonist -2.9, TRPML1 agonist -1.1, PINK1 expr mod -1.2%, D2 potentiator -9, TRPML1 inh 34 and Six1-Eya2 inh 10.
For COCc1cc(=O)[nH]c2cc(NC(=O)C(F)(F)F)c(C)cc12 the results were D2 agonist -1.9, TRPML1 agonist -0.6, PINK1 expr mod -1.4%, D2 potentiator -9, TRPML1 inh -14 and Six1-Eya2 inh 0.
Screening CC(=O)Nc1ccc(S(=O)(=O)Nc2cc3c(cc2C(C)=O)OCO3)cc1 returned D2 agonist 3.1, TRPML1 agonist 0.6, PINK1 expr mod 10%, D2 potentiator 0, TRPML1 inh -7 and Six1-Eya2 inh -2.
Screening Cc1sc2ncnc(N3CCC(C(=O)NNC(=O)COc4ccccc4F)CC3)c2c1C returned D2 agonist -0.9, TRPML1 agonist -0.9, PINK1 expr mod 1.1%, D2 potentiator inconclusive, TRPML1 inh 18 and Six1-Eya2 inh -22.
For O=C(CN1CCOc2ccccc21)NC1CC1 the results were D2 agonist 3.7, TRPML1 agonist 0.2, PINK1 expr mod 0.1%, D2 potentiator -1, TRPML1 inh 22 and Six1-Eya2 inh -1.
For CC(=O)c1c(O)c2ccccc2n(C)c1=O the results were D2 agonist -3.7, TRPML1 agonist -0.4, PINK1 expr mod 2.5%, D2 potentiator 0, TRPML1 inh 23 and Six1-Eya2 inh 4.
O=S(=O)(NCCSc1nnnn1-c1ccccc1)c1cccs1 was read as D2 agonist -0.3, TRPML1 agonist 1.4, PINK1 expr mod -0.3%, D2 potentiator -12, TRPML1 inh 24 and Six1-Eya2 inh 3.
`O=C(CCS(=O)(=O)c1ccc2c(c1)NC(=O)CO2)NCCc1ccccc1` gave D2 agonist -4.8, TRPML1 agonist 0.7, PINK1 expr mod 0.1%, D2 potentiator -2, TRPML1 inh 6 and Six1-Eya2 inh 19.
For CCc1nnc(SCc2c(F)cccc2Cl)c2cc3sccc3n12 the results were TRPML1 agonist -0.8, PINK1 expr mod 1.8% and TRPML1 inh 21.
For CCOC(=O)C1C(C(=O)OC)=C(C2=CCCCC2)c2ccccc2N1S(=O)(=O)C(F)(F)F (stereo unspecified) the results were D2 agonist 2.0, TRPML1 agonist 1.1, PINK1 expr mod -0.2%, TRPML1 inh -6 and Six1-Eya2 inh 1.
For O=C(NCC(c1ccco1)N1CCCCC1)c1ccc(S(=O)(=O)Nc2ccccc2)cc1 (stereo unspecified) the results were D2 agonist 0.3, TRPML1 agonist 0.6, PINK1 expr mod 1.2%, D2 potentiator -6, TRPML1 inh -9 and Six1-Eya2 inh -8.
Screening Cc1ccc(/C=N/NC(=S)Nc2cccc(S(=O)(=O)N(C)C)c2)o1 returned D2 agonist 5.2, TRPML1 agonist 1.5, PINK1 expr mod 3.8%, D2 potentiator -12, TRPML1 inh 29 and Six1-Eya2 inh -25.
Screening COC(=O)CCCC1=CC2=C(c3ccccc3)C(=O)C(C)(OC(=O)C3CCCC3)C(=O)C2=CN1C(CO)CO (stereo unspecified) returned D2 agonist -0.7, TRPML1 agonist 0.5, PINK1 expr mod 0.4%, D2 potentiator -5, TRPML1 inh 26 and Six1-Eya2 inh -5.
Screening CN(C)S(=O)(=O)c1cccc(NC(=O)c2cc3c(cc2Cl)N2CCCCCC2=NS3(=O)=O)c1 returned D2 agonist 0.5, TRPML1 agonist 0.3, PINK1 expr mod -0.9%, D2 potentiator -9, TRPML1 inh -3 and Six1-Eya2 inh -6.
`COc1cc(/C=N/NC(=O)Nc2cccc3nsnc23)cc(OC)c1OC` gave D2 agonist 1.4, TRPML1 agonist 1.6, PINK1 expr mod 5.2%, D2 potentiator 14, TRPML1 inh 3 and Six1-Eya2 inh inconclusive.
Cc1ccc(F)cc1-c1nc(NC(C)C)nc2cc(-c3ccccc3)sc12 was read as D2 agonist -5.0, TRPML1 agonist -0.4, PINK1 expr mod inconclusive, D2 potentiator -1 and Six1-Eya2 inh 38.
Screening C=CC[C@@H](CC(=O)N[C@H](CO)Cc1ccccc1)C(=O)N[C@H](COC(=O)[C@@H](CC=C)Cc1ccc(F)cc1)C(C)(C)C returned D2 agonist 3.9, TRPML1 agonist 0.6, PINK1 expr mod 29%, D2 potentiator -6, TRPML1 inh 33 and Six1-Eya2 inh 7.
Screening COc1ccc(C(C)(C)C)cc1NC(=O)c1cc(S(=O)(=O)N(C)C)ccc1N1CCCC1 returned D2 agonist -7.3, TRPML1 agonist 0.1, PINK1 expr mod 3.4%, D2 potentiator -34, TRPML1 inh 19 and Six1-Eya2 inh -21.

2 records picked at random from the list so far:
Screening CC(=O)Nc1ccc(S(=O)(=O)Nc2cc3c(cc2C(C)=O)OCO3)cc1 returned D2 agonist 3.1, TRPML1 agonist 0.6, PINK1 expr mod 10%, D2 potentiator 0, TRPML1 inh -7 and Six1-Eya2 inh -2.
CCN(CC)C(=O)C1CCN(S(=O)(=O)c2ccc(C3CNC(=O)C3)cc2)CC1 (stereo unspecified) was read as D2 agonist 6.7, TRPML1 agonist -0.3, PINK1 expr mod 1.7%, D2 potentiator 1, TRPML1 inh -3 and Six1-Eya2 inh 0.

Further records.
For CC(=O)Nc1ccc(SCCN2CC[C@@H](C)CCC2=O)cc1 the results were D2 agonist -3.8, TRPML1 agonist -0.7, PINK1 expr mod 0.9%, D2 potentiator -4, TRPML1 inh -7 and Six1-Eya2 inh -6.
For O=C(c1cc(-c2ccco2)on1)N1CCc2ccccc2C1 the results were D2 agonist -1.2, TRPML1 agonist 1.1, PINK1 expr mod 3.0%[38.3 µM], D2 potentiator -7, TRPML1 inh -1 and Six1-Eya2 inh -3.
Screening Cc1ccc(S(=O)(=O)N2CCOCC2)cc1C(=O)NC1CCSc2ccccc21 (stereo unspecified) returned D2 agonist -1.4, TRPML1 agonist 0.4, PINK1 expr mod 1.2%, D2 potentiator -11, TRPML1 inh -1 and Six1-Eya2 inh -4.
For CC(CC(=O)O)CC(=O)NNC(=O)c1cccc(Br)c1 (stereo unspecified) the results were D2 agonist 1.6, TRPML1 agonist 0.6, PINK1 expr mod -1.6%, D2 potentiator -7, TRPML1 inh 1 and Six1-Eya2 inh 8.
Screening Cc1ccc(OCCSc2nnc(C)c(=O)n2N)cc1 returned D2 agonist -4.8, TRPML1 agonist 0.5, PINK1 expr mod 0.1%, D2 potentiator -6, TRPML1 inh 11 and Six1-Eya2 inh -4.
Screening OCC1OC(n2cnc3ncccc32)C(O)C1O (stereo unspecified) returned D2 agonist -4.3, TRPML1 agonist -0.3, PINK1 expr mod -0.4%, D2 potentiator -2 and Six1-Eya2 inh -4.
`CC(C)=CCOc1ccc([C@@H]2COc3c(ccc4c3C=CC(C)(C)O4)C2)c(O)c1` gave D2 agonist 12, PINK1 expr mod inconclusive, D2 potentiator -12 and Six1-Eya2 inh -16.
Screening Cc1ccccc1CN1CC2=C(CCN(Cc3ccccc3)C2=O)N2CCN=C12 returned D2 agonist -3.7, TRPML1 agonist 1.0, PINK1 expr mod 2.3%, D2 potentiator -14 and Six1-Eya2 inh -4.
For CCOC(=O)CN1C(=N)N(c2nc(NC(C)C)nc(NC(C)C)n2)CC1=O the results were D2 agonist -0.2, TRPML1 agonist 0.7, PINK1 expr mod 3.3%[38.3 µM], D2 potentiator -3, TRPML1 inh -13 and Six1-Eya2 inh 3.
For O=S(=O)(c1cc(Cl)ccc1Cl)N1CCCC1 the results were D2 agonist -2.3, TRPML1 agonist 0.7, PINK1 expr mod 4.4%, D2 potentiator 5, TRPML1 inh 7 and Six1-Eya2 inh 14.
Screening O=C(CSC1=Nc2ccccc2N=C(c2ccc(F)cc2)C1)NCc1ccccc1Cl returned TRPML1 agonist 0.6, PINK1 expr mod 2.9% and TRPML1 inh 9.
For Cc1c(N2C(=O)/C(=C\c3cccc4ccccc34)SC2=S)c(=O)n(-c2ccccc2)n1C the results were D2 agonist -1.9, TRPML1 agonist 0.1, PINK1 expr mod 3.4%, D2 potentiator 7, TRPML1 inh -1 and Six1-Eya2 inh 2.
CCN(CC)C(=O)c1cccc(-c2csc(C(C)(NC(C)=O)c3ccc(OC)cc3)n2)c1 (stereo unspecified) was read as D2 agonist 0.2, TRPML1 agonist -1.2, PINK1 expr mod 2.1%, D2 potentiator -1 and Six1-Eya2 inh -3.
Cc1cc(OCC(=O)Nc2cnn(CCCC(=O)O)c2)ccc1[N+](=O)[O-] was read as D2 agonist -3.7, TRPML1 agonist -0.1, PINK1 expr mod -0.3%, D2 potentiator -1, TRPML1 inh 4 and Six1-Eya2 inh -6.
CC(C)(C)C(=O)CSc1nc2ccsc2c(=O)n1Cc1ccccc1F was read as TRPML1 agonist -0.2, PINK1 expr mod -0.4% and TRPML1 inh inconclusive.
Screening CCc1cccc(CC)c1NC(=O)C1CCC(CNS(=O)(=O)c2cccc3nsnc23)CC1 (stereo unspecified) returned TRPML1 agonist -1.0, PINK1 expr mod 2.7% and TRPML1 inh -15.
For COc1ccc(NC(=O)COc2ccc(/C=N/O)cc2OC)cc1 the results were D2 agonist -5.3, TRPML1 agonist 1.2, PINK1 expr mod 2.8%, D2 potentiator 8, TRPML1 inh 1 and Six1-Eya2 inh -7.
For COc1ccc(C(=O)NCCCNC(=O)c2ccco2)cc1OC the results were D2 agonist -3.0, TRPML1 agonist 1.5, PINK1 expr mod -1.8%, D2 potentiator -7, TRPML1 inh 7 and Six1-Eya2 inh -13.
For NS(=O)(=O)c1ccc(CCNC(=O)c2cc(-c3ccc(Br)cc3)nc3ccccc23)cc1 the results were D2 agonist -2.5, TRPML1 agonist 2.6, PINK1 expr mod 5.4%, D2 potentiator -5, TRPML1 inh -4 and Six1-Eya2 inh -3.
For Cc1cccc(Nc2ncnc3ccccc23)c1 the results were D2 agonist 0.6, TRPML1 agonist -0.5, PINK1 expr mod 0.0%, D2 potentiator 5, TRPML1 inh 24 and Six1-Eya2 inh 1.
For O=C(NN=C1CCCCCCC1)c1ccccn1 the results were D2 agonist -2.8, TRPML1 agonist -0.8, PINK1 expr mod -1.7%[38.3 µM], D2 potentiator 4, TRPML1 inh 4 and Six1-Eya2 inh -8.
For Cc1ccc(NC(=O)c2ccccc2)cc1-n1cnnn1 the results were D2 agonist -2.5, TRPML1 agonist 0.1, PINK1 expr mod 0.7%, D2 potentiator -7, TRPML1 inh 17 and Six1-Eya2 inh 8.

Screens as filed in PubChem.
